Bioassay records (PubChem)
Vif TR-FRET – inhibitors of Vif binding to APOBEC3G peptide, primary screen, biochemical, TR-FRET, GST-Vif 1-94, biotin-A3G peptide, dose response retest (AID 1117319); TR-FRET GST-Vif / biotin-A3G peptide binding; higher % means a stronger effect; test concentration not given here; strong numbers were not always called active; one-dose inhibition, %; IC50 in µM for titrated hits; 0.57% of 260,000 active;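 active means above the screen mean plus three standard deviations and confirmed in dose response; inconclusive means results disagree or hit not tested in dose response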;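 further: Vif residues 1-94 fused to GST binding biotinylated APOBEC3G peptide 110-148; 0% = full assay without inhibitor and 100% = GST in place of GST-Vif; retest series ran down from 100 µM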
Ecoli growth – E. coli growth inhibition. Escherichia coli growth, OD600, 23 h; stronger effect = lower value. OD600 absorbance (test concentration not listed). 0.21% of 330,000 active. AID 1053175;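 active means OD600 absorbance below the run mean of sample wells minus 3.6 SD, in any replicate, cut at about 0.56 in these data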;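 further: stock transfer was 300 nL into about 60 µL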
FGF22 binding – FGF22 (human) thermal shift binding | Q9HCT0 | recombinant FGF22 thermal shift, SYPRO orange fluorescence; percent of sucrose octasulfate shift, DMSO zero | calls only at 9.99 µM | 1.5% of 340,000 active;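 active means melting point raised past a set limit in the mean and every replicate; inconclusive means no clear call; three in four hits are not shown here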
rRNA inh HTS – inhibits bacterial ribosomal RNA function over humanized ribosomes; GFP signal change (wild-type ribosome), % (test concentration not listed); 1.6% of 350,000 active; E. coli WT GFP vs humanized-ribosome RFP mutants, fluorescence, 24 h; stronger effect = lower value; DMSO median 0, no signal -100;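 active means significant combined selectivity score with lowered wild-type GFP, culture density cut under 30%, mutant RFP and density less affected; inactive means any of these conditions unmet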; further: one replicate is shown; some compounds called inactive have numbers as strong as hits
HNF4A DNA FP – change in binding of human HNF4 alpha to DNA; P41235; HNF4a-FITC DNA binding, fluorescence polarization, 1 h; activity change, % at 10 µM; 0.3% of 360,000 active; AID 1224865; in the data active means activity change above about 30%, passing the limit was not always enough;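 further: controls were the assay level and a saturating level of protein; the project sought stronger binding though the title names inhibitors; some compounds called inactive have numbers as strong as hits; positive values seem to mean higher polarization but the record does not say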
Target sequence (P41235 whole entry, looked up): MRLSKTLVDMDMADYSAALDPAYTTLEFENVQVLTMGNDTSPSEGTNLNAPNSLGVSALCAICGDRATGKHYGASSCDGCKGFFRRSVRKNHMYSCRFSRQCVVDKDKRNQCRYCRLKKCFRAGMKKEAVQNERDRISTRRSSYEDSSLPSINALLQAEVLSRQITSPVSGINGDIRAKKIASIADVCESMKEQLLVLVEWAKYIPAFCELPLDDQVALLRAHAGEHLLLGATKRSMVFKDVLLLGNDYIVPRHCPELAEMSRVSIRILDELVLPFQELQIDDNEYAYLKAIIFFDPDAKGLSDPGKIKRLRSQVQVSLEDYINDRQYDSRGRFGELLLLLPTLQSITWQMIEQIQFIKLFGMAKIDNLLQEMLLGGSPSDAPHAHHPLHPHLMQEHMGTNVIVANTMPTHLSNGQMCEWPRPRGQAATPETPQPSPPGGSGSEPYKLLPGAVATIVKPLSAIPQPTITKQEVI
ALR H2O2 inh – human ALR oxidase inhibition via reduced H2O2; P55789; 3.8% of 290,000 active; inhibition, % (concentration not given with the values); purified ALR, DTT oxidation, H2O2 HRP-luminol luminescence;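 active means mean and each replicate at 75% or more; inconclusive means only one of the two met; inactive means neither met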;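 further: stock transfer was 7.5 nL into about 7.5 µL; 0% = neutral wells and 100% = wells with inactivated enzyme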
MLL AF4-AF9 inh – MLL-AF4/AF9 protein interaction inhibition; inhibition, % at 10 µM; 0.47% of 350,000 active; AlphaScreen, biotin-AF4 peptide binding to FLAG-AF9; AID 651704;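 active means every replicate reaching a set inhibition limit, whatever the replicate mean, cut at about 25% in these data; inconclusive means mean inhibition reaches that limit but some replicates miss it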;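 further: 0% = plate neutral control median and 100% = total signal loss; the record names both 10 and 1 µM as test concentration; the first replicate is given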
Target sequence (P42568 whole entry, looked up): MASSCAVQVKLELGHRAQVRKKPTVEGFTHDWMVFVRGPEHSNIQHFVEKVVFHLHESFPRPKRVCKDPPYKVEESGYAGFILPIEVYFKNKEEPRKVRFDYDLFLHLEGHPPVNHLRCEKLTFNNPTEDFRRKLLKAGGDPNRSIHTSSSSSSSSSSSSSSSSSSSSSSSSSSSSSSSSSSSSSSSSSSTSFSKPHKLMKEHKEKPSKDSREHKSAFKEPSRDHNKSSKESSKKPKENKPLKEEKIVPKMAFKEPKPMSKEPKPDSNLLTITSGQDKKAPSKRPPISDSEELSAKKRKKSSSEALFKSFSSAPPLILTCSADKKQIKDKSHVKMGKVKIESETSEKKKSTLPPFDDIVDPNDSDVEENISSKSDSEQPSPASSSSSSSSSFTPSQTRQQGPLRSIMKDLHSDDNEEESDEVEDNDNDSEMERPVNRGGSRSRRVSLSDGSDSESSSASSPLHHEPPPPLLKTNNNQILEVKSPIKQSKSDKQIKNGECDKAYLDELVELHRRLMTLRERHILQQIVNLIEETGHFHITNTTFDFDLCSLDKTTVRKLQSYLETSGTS
rRNA inh HTS OD600 – also measured in rRNA inh HTS; calls as there; OD600 change, %; measured here: OD600 growth;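 optical density of the mix in the first replicate; 0 = DMSO median and -100 = no signal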
rRNA inh HTS RFP – further read-out of rRNA inh HTS, marked with its call; RFP signal change, %; measured here: RFP humanized mutant strains;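 first replicate; 0 = DMSO median and -100 = no signal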
Numbers without * were called inactive; i = inactive; ? = inconclusive; nt = no result given; & = joins results of further samples. Some of the compounds tested (hit frequency here may not be typical).

Every second line gives: Vif TR-FRET	Ecoli growth	FGF22 binding	rRNA inh HTS	rRNA inh HTS OD600	rRNA inh HTS RFP	HNF4A DNA FP	ALR H2O2 inh	MLL AF4-AF9 inh
Cc1ccccc1-n1c(C)nc2ccccc2c1=O
 : nt	0.733	i	17.0	6.8	0.0	3.6	-7.4	-2.4
Cc1ccc(N2C(=O)NC(=O)C(CCc3ccncc3)(Cc3cccc(Cl)c3Cl)C2=O)cc1 (stereo unspecified)
 : nt	0.731	nt	nt	nt	nt	-2.7	-4.3	nt
COc1ccccc1N1CCN(Cc2ccc(Cl)cc2Cl)CC1
 : 5.2%	0.666	nt	nt	nt	nt	1.1	10.1	nt
CC(C)(OOC1(c2ccccc2)NC(=O)c2ccccc21)c1ccccc1 (stereo unspecified)
 : nt	nt	i	-2.4	-20.8	-11.7	2.6	nt	0.7
COc1ccc(-c2cc(C(F)(F)F)n3nc(C(=O)N4CCC5(CC4)OCCO5)cc3n2)cc1OC
 : -8.5%&-2.7%	0.753	nt	nt	nt	nt	-0.4	-18.9	nt
C=CCN1C(=O)NC(=O)/C(=C/c2c(CCN(C)C(=O)c3ccccc3)cc3c(c2OC)OCO3)C1=O
 : nt	0.766	i	nt	nt	nt	1.0	12.1	-2.0
CC1(C)CC(=O)C=C(NCCN2CCN(C(=O)Cc3ccc(Cl)cc3)CC2)C1
 : -7.9%&2.2%	0.748	nt	nt	nt	nt	0.4	nt	nt
COC(=O)[C@@H]1[C@@H](CO)[C@@H]2Cn3c(ccc(-c4ccncc4)c3=O)[C@H]1N2CCc1ccccc1
 : nt	nt	i	1.4	-2.6	-2.1	nt	nt	-1.1
CN(C)CC1CCCCC1=O (stereo unspecified)
 : -7.3%	0.662	i	3.6	-1.1	-2.5	-0.8	-1.8	2.5
CCCC(=O)NC(Oc1ccc(C(C)=O)cc1)C(Cl)(Cl)Cl (stereo unspecified)
 : nt	0.72	i	6.8	3.5	0.6	2.6	-4.7	-1.1
CCC(=Nc1cccc(C(F)(F)F)c1)c1c(O)n(C)c(=O)n(C)c1=O
 : -13.7%	0.656	i	8.9	8.9	0.2	-0.2	5.1	1.3
O=C(Cc1ccccc1[N+](=O)[O-])N1CCN(Cc2ccc3c(c2)OCO3)CC1
 : nt	0.642	i	5.4	0.0	0.7	2.9	-25.4	1.8
CCC(COC(=O)NC)NC(=O)Oc1cccc(C)c1 (stereo unspecified)
 : 12.2%	0.708	nt	nt	nt	nt	-0.8	4.7	nt
CC(N)C(=O)NC1C2C(=C(O)CC(O)C2O)C(=O)OC1(C)C(Cl)Cl (stereo unspecified)
 : 1.2%	nt	i	-52.3	-77.5	-18.7	-2.2	nt	-6.3
Cc1cccn2c(=O)c3cc(C(=O)N4CCC5(CC4)OCCO5)n(C)c3nc12
 : -1.3%	0.651	nt	nt	nt	nt	-0.5	nt	nt
Cn1cccc1CNCCc1ccccc1F
 : 10.2%	0.679	nt	nt	nt	nt	0.2	4.1	nt
COC(=O)C1=C(c2ccc(OC(F)(F)F)cc2)C[C@@H]2CC[C@H]1N2C(=O)NC1CCCCC1
 : nt	nt	i	-13.9	-42.8	-6.2	0.6	0.8	1.3
CSc1ccccc1NP1(=O)OCC(C)([N+](=O)[O-])CO1 (stereo unspecified)
 : -2.9%	nt	i	1.8	4.7	0.1	1.7	nt	-1.7
CCOc1ccc(C(=O)OC2CC3CCC(C2)N3C)cc1 (stereo unspecified)
 : nt	nt	i	7.1	7.3	-0.1	0.1	-12.3	1.1
COc1ccc(C(c2nnnn2-c2ccc3c(c2)OCCO3)N2CCC(n3c(=O)[nH]c4ccccc43)CC2)cc1 (stereo unspecified)
 : nt	nt	i	-2.2	-4.4	-0.1	1.0	nt	2.2
FC(F)(F)c1ccc2c(c1)N(CCCN1CCN(CCCl)CC1)c1ccccc1S2
 : 10.9%	0.674	nt	nt	nt	nt	3.6	99.2*	nt
COc1ccc(C(O)C(C)NC(C)C(O)c2ccc(OC)cc2)cc1 (stereo unspecified)
 : nt	0.636	i	19.1	0.7	1.3	4.7	-4.6	nt
OC(CNCCc1c[nH]c2ccccc12)C(F)(F)F (stereo unspecified)
 : 7.8%	0.718	nt	7.7	4.6	-0.7	-0.8	12.1	4.3
CN1Cc2cnnn2-c2ccccc2C1C#N (stereo unspecified)
 : -4.4%	nt	i	10.4	12.2	1.1	3.8	nt	-0.8
C=C(C)[C@@]12OC3(c4ccccc4)O[C@@H]1C1[C@@H]4O[C@]4(CO)[C@@H](O)[C@]4(O)C(=O)C(C)=C[C@H]4[C@@]1(O3)[C@H](C)[C@H]2OC(=O)/C=C/C=C/c1ccccc1 (stereo partly specified)
 : nt	0.767	nt	nt	nt	nt	0.2	-4.1	nt
CSc1ncc(/C=C2/C(=O)NC(=O)N(c3ccc(Cl)cc3)C2=O)cn1
 : ?	0.646	i	10.4	12.8	0.0	1.6	nt	-1.3
CN1CCC(c2c[nH]c3ccc(O)cc23)CC1
 : nt	nt	i	nt	nt	nt	1.4	nt	1.8
COC(=O)C1=C(c2cc3ccccc3s2)C[C@@H]2CC[C@H]1N2C
 : nt	nt	i	-3.8	0.2	0.7	1.2	-3.9	5.0
Cc1ccc(OCC(=O)NCCN2CCN(C(=O)COc3ccc(C)cc3)CC2)cc1
 : 9.7%	0.683	nt	nt	nt	nt	0.8	nt	nt
CC(=O)Nc1ccccc1C(=O)OCC(=O)c1ccc2c(c1)OCCO2
 : -6.9%	0.692	nt	nt	nt	nt	4.2	-36.5	nt
COC(=O)C1=C(c2ccccc2)C[C@@H]2CC[C@H]1N2C(=O)NCC1CC1
 : nt	nt	i	8.1	9.6	-2.7	-5.2	2.3	2.4
Cc1nc2ccccc2c(=O)n1-c1ccc(C(=O)O)cc1
 : 5.7%	0.692	i	8.5	-2.7	-2.0	2.8	2.9	-0.7
CCOC(=O)C1=C(C)OC(N)=C(C#N)C12C(=O)N(C)c1ccccc12 (stereo unspecified)
 : -1.1%	0.692	nt	nt	nt	nt	-3.4	-1.4	nt
CC1=NN(c2ccccc2)C(=O)C1/C=C1\C(=O)NC(=O)N(c2cc(C)cc(C)c2)C1=O (stereo unspecified)
 : 24.8%	0.766	nt	nt	nt	nt	2.0	7.7	nt
NC1=NC(c2cccnc2)n2c(nc3ccccc32)N1 (stereo unspecified)
 : -3.9%	0.678	i	nt	nt	nt	nt	-4.1	-1.7
CCCCc1cc(=O)oc2cc(OCC(=O)N3C[C@H]4C[C@@H](C3)c3cccc(=O)n3C4)c(Cl)cc12
 : nt	0.726	i	nt	nt	nt	6.0	-0.1	-1.7
c1ccc(CCNCc2cccs2)cc1
 : nt	0.648	i	18.4	18.4	-1.0	4.0	12.0	-2.1
CCN(CC)c1ccc(/C=C2/C(=O)NC(=O)N(CC3CCCO3)C2=O)cc1 (stereo unspecified)
 : ?	0.64	nt	nt	nt	nt	-0.6	67.5	nt
CC(=O)O[C@]1(c2ccccc2)CCN(C)[C@H]2CCCC[C@@H]21
 : -2.1%	0.674	nt	nt	nt	nt	2.9	nt	nt
CN1CCc2cccc(Cl)c2CC1
 : nt	0.696	i	nt	nt	nt	-1.4	3.3	12.7
Cc1sc2nc(COC(=O)Cc3ccccc3)[nH]c(=O)c2c1C
 : 1.9%	0.741	nt	nt	nt	nt	-0.5	-12.8	nt
C[C@]12CC[C@@H]3c4ccc(O)c(O)c4CC[C@H]3[C@@H]1CC[C@@H]2O
 : -11.7%	nt	i	nt	nt	nt	-0.1	11.0	10.0
CC/C(=N\NC(=S)Nc1ccccc1)c1c(O)[nH]c(=O)[nH]c1=O
 : 17.1%	0.561	i	2.4	-0.9	-4.9	0.5	99.2*	1.6
Cc1ccsc1C(=O)C1CCCN(Cc2ccc(-n3cccn3)cc2)C1 (stereo unspecified)
 : nt	0.717	i	-6.1	-9.1	-5.5	-3.5	nt	-11.3
COc1ccccc1CCNCc1ccc(OC)c(OC)c1OC
 : -4.2%	0.671	i	17.7	30.2	1.4	-0.5	-1.7	2.2
C=CCC1C(=O)NC(=S)NC1=O
 : -7.8%	0.716	i	13.1	13.7	-0.6	2.2	22.0	-3.2
Fc1ccc(CNCCc2ccccc2)cc1
 : -0.8%	0.684	i	6.8	-3.6	1.2	-2.9	-2.4	-4.9
CCCCCc1nc2ccccc2c(=O)n1-c1ccc(Cl)cc1[N+](=O)[O-]
 : -1.6%	0.76	i	3.8	6.7	5.9	2.2	1.0	-0.8
Cc1ccccc1NC1=NCCCS1
 : 7.0%	0.703	nt	nt	nt	nt	-0.5	1.8	nt
CCC(=O)N1CC(=O)Nc2ccc(Br)cc2C1c1ccccc1 (stereo unspecified)
 : 6.0%	0.683	nt	7.8	5.6	-3.2	2.5	-3.0	-1.0

(next part)
Every second line gives: Vif TR-FRET	Ecoli growth	FGF22 binding	rRNA inh HTS	rRNA inh HTS OD600	rRNA inh HTS RFP	HNF4A DNA FP	ALR H2O2 inh	MLL AF4-AF9 inh
O=C(Cc1ccc(Cl)c(Cl)c1)NCC1(N2CCOCC2)CCCCC1
 : -1.2%	0.683	i	6.2	1.5	2.9	1.3	-16.6	0.4
C[C@@H]1CN(C2CCC(C#N)(c3ccc(F)cc3)CC2)CC[C@]1(C(=O)O)c1ccccc1 (stereo partly specified)
 : nt	nt	i	nt	nt	nt	-1.6	9.3	-0.1
COc1ccc(/C=C2/C(=O)N(Cc3ccco3)C(=O)N(C(C)C)C2=O)cc1
 : ?	0.718	i	6.2	-1.2	3.3	24.4	15.1	2.0
CSc1ncc(Br)c(N2CC2)n1
 : -4.8%	0.68	nt	9.6	6.3	-0.1	2.1	nt	2.8
CSc1nnc(C2CCNCC2)n1C
 : -4.2%	0.736	nt	nt	nt	nt	0.0	-1.1	nt
Cc1ccc2c(c1)CNc1ccccc1O2
 : 0.3%	0.675	nt	nt	nt	nt	-1.0	88.2*	nt
CCCCCCN=Cc1c(O)n(C)c(=O)n(C)c1=O
 : 1.8%	0.698	nt	nt	nt	nt	0.7	1.6	nt
Cc1ccc(CNC(=O)COC(=O)c2nc(-c3ccccc3)oc2C)cc1
 : nt	0.685	i	6.8	9.9	5.7	7.3	nt	-5.1
CCc1ccc(-n2c(O)c(/C=N/N3CCCCC3c3cccnc3)c(=O)[nH]c2=O)cc1 (stereo unspecified)
 : 7.8%	nt	i	2.3	4.0	-0.3	6.6	20.7	-0.6
Cc1ccccc1-n1c(-c2ccoc2)nc2ccccc2c1=O
 : -5.0%	0.687	i	-6.8	-5.2	-3.7	-0.6	0.5	1.2
Cc1ccnc(-n2c(C)nc3ccccc3c2=O)c1
 : 20.6%	0.719	nt	nt	nt	nt	-2.6	-3.7	nt
C=CC(C)C(C(=O)c1ccccc1)N(C)C (stereo unspecified)
 : nt	0.609	i	2.8	1.1	-2.1	0.0	nt	0.4
O=C(c1cccc(C(F)(F)F)c1)N1C[C@H]2C[C@@H](C1)c1cccc(=O)n1C2
 : nt	0.625	i	18.4	14.0	15.7	3.6	-8.0	-1.8
COC(=O)C1=C(c2ccc(OC(F)(F)F)cc2)C[C@@H]2CC[C@H]1N2C(=O)N1CCC(C)CC1
 : nt	nt	i	-7.6	-18.7	-0.9	-0.5	-2.2	1.6
CC/C(=N\NC(=O)c1ccccc1)c1c(O)n(Cc2ccccc2)c(=O)[nH]c1=O
 : 14.2%	0.629	i	6.4	-1.2	0.9	12.8	43.5	-1.3
O=C(C(=O)N1CCOCC1)c1cn(Cc2ccccc2F)c2ccccc12
 : nt	0.716	i	1.9	7.4	-2.7	-1.9	1.5	-1.2
